PV pol inh – poliovirus RdRp elongation inhibitors, primary screen, biochemical, fluorescence polarization, total intensity; AID 588519, 2011; % elongation, % (compound at 16.7 µg/mL); 0.66% of 150,000 active; poliovirus polymerase elongation; active compounds read low; in the data active = % elongation below about 90%; also: some results filed as inactive read as strong as hits
Target sequence (P03300 1749-2209 limits assumed): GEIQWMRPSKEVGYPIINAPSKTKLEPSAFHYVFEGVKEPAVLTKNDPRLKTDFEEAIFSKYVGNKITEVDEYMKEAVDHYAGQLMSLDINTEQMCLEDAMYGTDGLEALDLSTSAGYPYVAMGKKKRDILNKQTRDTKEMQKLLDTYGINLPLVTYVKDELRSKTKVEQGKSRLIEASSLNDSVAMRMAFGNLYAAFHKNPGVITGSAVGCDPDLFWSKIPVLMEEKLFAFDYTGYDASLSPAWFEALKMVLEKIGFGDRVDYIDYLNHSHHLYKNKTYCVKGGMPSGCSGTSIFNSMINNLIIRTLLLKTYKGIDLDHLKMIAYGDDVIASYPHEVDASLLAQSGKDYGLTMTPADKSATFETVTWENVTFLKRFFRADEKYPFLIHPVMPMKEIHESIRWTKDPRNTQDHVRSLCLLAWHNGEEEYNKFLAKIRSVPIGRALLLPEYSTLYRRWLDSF
PV pol inh intensity – recorded beside PV pol inh, whose call it bears; % elongation; measured here: total intensity read-out; formula for this scale not given here;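 total fluorescence in place of polarization; lower means less elongation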
* hit, by the source's call.

SMILES	PV pol inh	PV pol inh intensity
CC(C)N(Cc1ccccc1)C(=O)C1CCCN(c2ncnc3onc(-c4ccc(F)cc4)c23)C1 (stereo not given)	111	111
COc1ccc2c(c1)CC(C(=O)Nc1ccc(OC)cc1OC)CO2 (stereo not given)	112	105
COc1ccc(S(=O)(=O)N2CCC(C(=O)Nc3ccc(Oc4ccccc4)cc3)CC2)cc1	110	111
CCN(CC)c1ccc(NC(=O)CN2CCN(CC(=O)Nc3ccccc3OC)CC2)cc1	112	110
CCc1nnc2c(Nc3ccc(N(CC)CC)cc3C)nc3ccccc3n12	99	101
CCCSCCCNC(=O)C1CCN(C(=O)c2cnn(-c3ccccc3)c2-n2cccc2)CC1	103	102
CCc1ccccc1NC(=O)Cn1nc(CC)n2c(cc3sccc32)c1=O	106	110
Cc1cc(C)cc(Nc2cc(C)nc3nncn23)c1	104	106
COc1cccc(-c2nc(SCC(=O)NC3CCCC3)c(-c3ccc(F)cc3)[nH]2)c1	113	110
CCc1ccc(NC(=O)CCS(=O)(=O)c2cc3c(cc2Cl)NC(=O)CO3)cc1	109	111
CC(C)Oc1ccc(C(=O)Nc2ccc(-c3nc4ccccc4s3)cc2)cc1	111	108
CCc1ccccc1NC(=O)C(CC)Oc1ccccc1-c1nnc(-c2ccccc2)o1 (stereo not given)	110	106
CCOC(=O)C1=C(CN(CC)Cc2ccccc2)NC(=O)NC1c1ccc(Cl)cc1 (stereo not given)	110	112
CC(=O)Nc1cccc(NC(=O)CN2C(=O)CCSc3ccccc32)c1	99	106
Cc1ccccc1CN1CCc2nc(Nc3ccc4c(c3)OCCO4)ncc2C1	112	114
O=C(Nc1ccccc1F)c1nc(S(=O)(=O)Cc2ccccc2F)ncc1Cl	107	111
Cc1cc(C)cc(NC(c2cccc(Cl)c2)c2nnc(-c3ccccc3)o2)c1 (stereo not given)	101	103
Cc1ccccc1Cn1c(SCc2ccc(C(=O)NCCc3ccccc3)cc2)nc2ccncc21	109	111
CC(C)c1ccc(NC(=O)CSc2nc3ccccc3nc2Cc2ccccc2)cc1	105	111
CCN1CCN(Cc2c(O)ccc3c(=O)c(Oc4ccccc4C(C)C)c(C(F)(F)F)oc23)CC1	103	105
Cn1nnnc1SCCCNCc1cccc(OCc2ccccc2)c1	107	112
Cc1ccc(-n2nc3c(N4CCC(C(=O)NC(C)C)CC4)nnc(C)c3c2C)cc1	112	106
Cc1ccc2c(c1)cc1c(=O)n(CC(=O)NC3CCCCC3)nc(C)n12	110	114
O=C(Cn1c(=O)n(Cc2ccco2)c(=O)c2oc3ccccc3c21)Nc1ccc(F)cc1F	112	116
COc1cc2c(cc1OC)C(COc1ccc(F)cc1)N(C(=O)c1ccccc1F)CC2 (stereo not given)	100	97
Cc1ccc(C)c(N2CCN(CCCNC(=O)c3cnn(-c4cccc(Cl)c4)c3C3CCN(C(=O)OC(C)(C)C)CC3)CC2)c1	106	110
COc1ccc(C(=O)Nc2nnc(SCc3cc(=O)c4cccc(F)c4[nH]3)s2)cc1	109	116
CCc1cccc(C)c1Nc1c(-c2ccc(F)cc2)nc2sccn12	108	110
CCOc1ccc(C(=O)Nc2ccc(S(=O)(=O)N(Cc3ccccc3)c3ccccc3)cc2)cc1	107	105
COc1ccc2nc(N(Cc3cccnc3)C(=O)C3CCCCC3)sc2c1	112	110
CC(C)c1ccc(CN(C(=O)c2cc3ccccc3oc2=O)C2CCS(=O)(=O)C2)cc1 (stereo not given)	107	109
CCC(Sc1nnc2c3ccccc3n(CC)c2n1)C(=O)Nc1ccc(NC(C)=O)cc1 (stereo not given)	102	102
COc1cccc(-c2nc(SC(C(C)=O)C(=O)N(C)C)c3c(=O)n(C)c(=O)n(C)c3n2)c1 (stereo not given)	103	110
Cc1ccc(C(=O)c2c(N)c(-c3nc(-c4ccc5c(c4)OCO5)cs3)c3ccccn23)cc1C	106	111
Cc1cc(C)cc(NC(=O)CCc2nnc3n(C)c(=O)c4sccc4n23)c1	106	108
Cc1ccc(Nc2nc(N)nc(N)c2S(=O)(=O)c2ccccc2)cc1	108	112
Cc1ccc2oc(=O)c3cnn(CC(=O)N4CCN(c5cccc(Cl)c5)CC4)c3c2c1	108	106
CCC(C)NC(=O)c1ccc(CNS(=O)(=O)c2ccc3c(c2)C(C)(C)C(=O)N3C)cc1 (stereo not given)	112	115
O=C(COc1ccccc1Cl)Nc1ccc(Cl)c(-c2nc3ccccc3o2)c1	106	110
Cc1ccc(CNC(=O)CCCCCn2c(=O)c3sccc3n(CC(=O)Nc3c(C)cc(C)cc3C)c2=O)cc1	105	107
COc1ccc(NC(=O)CCc2c(C)nc3c(-c4ccc(F)cc4)c(C)nn3c2C)c(OC)c1	106	110
COc1ccccc1NC(=O)Cn1c(=O)n(-c2cccc(Cl)c2)c(=O)c2sc3ccccc3c21	106	108
CCOc1ccc(N2CC(c3nc4ccccc4n3CCCOc3ccccc3)CC2=O)cc1 (stereo not given)	112	108
COc1ccccc1CNC(=O)CCC1N=C2c3ccccc3N=C(SCC(=O)NCCc3ccccc3)N2C1=O (stereo not given)	112	100
Cc1nc2cc(-c3cccc(F)c3)nn2c(C)c1CCC(=O)NCCc1ccccc1	106	103
COC(=O)c1ccc([C@H]2Nc3ccc(S(=O)(=O)Nc4ccc(F)cc4)cc3[C@H]3C=CC[C@H]32)cc1	119	130
CC(C)c1ccc(S(=O)(=O)Nc2ccc(O)c(Sc3nc4ccccc4s3)c2)cc1	101	104
Cc1nnc(N2CCC(C(=O)Nc3ccc(F)cc3)CC2)c2nn(-c3ccc(Cl)cc3)c(C)c12	104	103
CCOC(=O)c1nnc2c(-c3ccc(F)cc3)c(C)nn2c1N	103	105
COc1ccc(-c2[nH]c(-c3ccc(C)cc3)nc2SCC(=O)NCC2CCCO2)cc1 (stereo not given)	110	114
O=S(=O)(Nc1c(F)cccc1F)c1ccc2c(c1)OCCO2	104	110
O=C(Nc1ccc2oc(-c3cccnc3)nc2c1)c1ccc(-c2ccccc2)o1	105	107
COc1cc(OC)cc(-n2c(=O)c3sccc3n(Cc3c(C)cc(C)cc3C)c2=O)c1	100	99
Cc1ccc(-n2c3nc(=O)[nH]c(=O)c-3cc3c(C)nn(-c4ccccc4)c32)cc1C	111	110
CCc1ccc(CNC(=O)CSc2c3c(nc4ccc(Cl)cc24)CCCC3)cc1	106	108
Cc1ccc(Nc2c(-c3ccc(N4CCOCC4)cc3)nc3ncccn23)cc1C	111	112
CCOC(=O)c1c(NC(C)=O)c2c3c(sc2n1Cc1nc(-c2cccc(Cl)c2)oc1C)CCCC3	109	115
COc1ccc(C(=O)NCCn2cc(SCC(=O)Nc3ccc4c(c3)OCCO4)c3ccccc32)cc1	105	100
COc1ccc(OC)c(CCNc2nccn(-c3ccc(C)c(C)c3)c2=O)c1	107	113
COc1ccc(NC(=O)CSc2nc(-c3cccs3)cc(C(F)(F)F)c2C#N)cc1	113	121

(continued)
SMILES	PV pol inh	PV pol inh intensity
COc1ccc(-n2c(SCC(=O)NCc3ccc(F)cc3)nc3c([nH]c4ccccc43)c2=O)cc1	111	117
Cc1cc(=O)n(CC(=O)NC(C)c2ccccc2)c2c1c(C)nn2-c1cccc(F)c1 (stereo not given)	103	98
CC(=O)c1ccc(NC(=O)CSc2ccc3nnc(CCNS(=O)(=O)c4ccc(C)cc4)n3n2)cc1	114	123
COC(=O)c1ccccc1NC(=O)c1ccc2nc(CCc3ccccc3)oc2c1	106	96
COc1ccc(Cl)cc1NC(=O)c1cc2c(=O)n3ccccc3nc2s1	101	97
CC(=O)Nc1cc(-c2ccccc2)nn1Cc1cccc(Cl)c1	104	108
CC(=O)c1ccc(S(=O)(=O)Nc2cccc(-c3ccc(N4CCCCCC4)nn3)c2)cc1	113	110
Cc1ccc2oc(=O)c3cnn(CC(=O)Nc4ccc(Br)cc4C)c3c2c1	109	109
CCCCOC(=O)c1ccc(Nc2nc3ccc(C)cc3n3cnnc23)cc1	110	113
CC1CCN(C(=O)CN2CCSc3ccccc32)CC1	114	113
O=C1c2oc3ccccc3c(=O)c2C(c2ccccc2F)N1Cc1ccc2c(c1)OCO2 (stereo not given)	106	106
COc1ccc(NC(=O)C2Cc3ccccc3N2C(=O)c2ccccc2)cc1OC (stereo not given)	100	97
CN1CCN(CCC(=O)Nc2ccc(Cl)cc2)CC1	103	107
Cc1nn(-c2nc(-c3ccccc3)cc(C(F)(F)F)n2)c(C)c1Cl	102	106
CCCSc1ncc(Cl)c(C(=O)Nc2c(C(=O)Nc3ccccc3)oc3ccccc23)n1	107	103
Cc1cc(C)cc(-n2c(SCC(=O)Nc3nnc(C)s3)nc3c([nH]c4ccccc43)c2=O)c1	107	109
CCOc1ccccc1NC(=O)N1CCN(S(=O)(=O)c2ccc3c(ccn3C)c2)CC1	105	106
COc1ccccc1N1CCN(S(=O)(=O)c2ccc(-c3coc(C)n3)cc2)CC1	105	111
CCOC(=O)c1ccccc1NC(=O)N1CCC(N2CCN(Cc3ccccc3)C(=O)C2=O)CC1	106	107
COC(=O)c1ccccc1NC(=O)c1ncoc1-c1ccco1	108	113

A different layout for some results above.
compound,PV pol inh,PV pol inh intensity
COc1cc(OC)cc(-n2c(=O)c3sccc3n(Cc3c(C)cc(C)cc3C)c2=O)c1,100,99
Cc1ccc(-n2c3nc(=O)[nH]c(=O)c-3cc3c(C)nn(-c4ccccc4)c32)cc1C,111,110
CCc1ccc(CNC(=O)CSc2c3c(nc4ccc(Cl)cc24)CCCC3)cc1,106,108
Cc1ccc(Nc2c(-c3ccc(N4CCOCC4)cc3)nc3ncccn23)cc1C,111,112
CCOC(=O)c1c(NC(C)=O)c2c3c(sc2n1Cc1nc(-c2cccc(Cl)c2)oc1C)CCCC3,109,115
COc1ccc(C(=O)NCCn2cc(SCC(=O)Nc3ccc4c(c3)OCCO4)c3ccccc32)cc1,105,100
COc1ccc(OC)c(CCNc2nccn(-c3ccc(C)c(C)c3)c2=O)c1,107,113
COc1ccc(NC(=O)CSc2nc(-c3cccs3)cc(C(F)(F)F)c2C#N)cc1,113,121
COc1ccc(-n2c(SCC(=O)NCc3ccc(F)cc3)nc3c([nH]c4ccccc43)c2=O)cc1,111,117
Cc1cc(=O)n(CC(=O)NC(C)c2ccccc2)c2c1c(C)nn2-c1cccc(F)c1 (stereo not given),103,98
CC(=O)c1ccc(NC(=O)CSc2ccc3nnc(CCNS(=O)(=O)c4ccc(C)cc4)n3n2)cc1,114,123
COC(=O)c1ccccc1NC(=O)c1ccc2nc(CCc3ccccc3)oc2c1,106,96
COc1ccc(Cl)cc1NC(=O)c1cc2c(=O)n3ccccc3nc2s1,101,97
CC(=O)Nc1cc(-c2ccccc2)nn1Cc1cccc(Cl)c1,104,108
CC(=O)c1ccc(S(=O)(=O)Nc2cccc(-c3ccc(N4CCCCCC4)nn3)c2)cc1,113,110
Cc1ccc2oc(=O)c3cnn(CC(=O)Nc4ccc(Br)cc4C)c3c2c1,109,109
CCCCOC(=O)c1ccc(Nc2nc3ccc(C)cc3n3cnnc23)cc1,110,113
CC1CCN(C(=O)CN2CCSc3ccccc32)CC1,114,113
O=C1c2oc3ccccc3c(=O)c2C(c2ccccc2F)N1Cc1ccc2c(c1)OCO2 (stereo not given),106,106
COc1ccc(NC(=O)C2Cc3ccccc3N2C(=O)c2ccccc2)cc1OC (stereo not given),100,97
CN1CCN(CCC(=O)Nc2ccc(Cl)cc2)CC1,103,107
Cc1nn(-c2nc(-c3ccccc3)cc(C(F)(F)F)n2)c(C)c1Cl,102,106
CCCSc1ncc(Cl)c(C(=O)Nc2c(C(=O)Nc3ccccc3)oc3ccccc23)n1,107,103
Cc1cc(C)cc(-n2c(SCC(=O)Nc3nnc(C)s3)nc3c([nH]c4ccccc43)c2=O)c1,107,109
CCOc1ccccc1NC(=O)N1CCN(S(=O)(=O)c2ccc3c(ccn3C)c2)CC1,105,106

The list goes on:
SMILES	PV pol inh	PV pol inh intensity
Cc1nn(-c2ccc(N3CCCCC3)nn2)c(C)c1CCC(=O)NCc1ccc(Cl)cc1	112	100
Cc1cn2c(=O)cc(COc3ccc(Cl)cc3)nc2s1	106	107
O=C1CN(C(=O)c2ccc(S(=O)(=O)N3CCCCC3)cc2)C(c2ccc(F)cc2)c2cc(Cl)ccc2N1 (stereo not given)	105	106
CC1(C)CC(=O)c2cc(-c3nc(-c4ccc(Cl)cc4)cs3)c(=O)n(-c3cccc(F)c3)c2C1	103	107
Cc1ccc(NC(=O)CSc2nccn2C2CCCC2)cc1Cl	104	99
O=C(CSc1nc2c([nH]c3ccccc32)c(=O)n1-c1ccc(F)cc1)NC1CCCCC1	105	112
Cc1ccc(-n2ncc(C(=O)N3CCc4ccccc4C3)c2C2CCN(C(=O)OC(C)(C)C)CC2)cc1C	101	98
CCOC(=O)c1ccccc1NC(=O)Nc1cc2c(cc1N1CCCC1)n(C)c(=O)n2C	105	102
Cc1nn(C)c2c1c(-c1ccccc1)cc(=O)n2Cc1ccccc1Cl	102	107

This is a subset; count on the stated rates, not on these rows.
